Bioassay records (PubChem)
VDR inh: Inhibitors of the vitamin D receptor (VDR): qHTS; VDR-SRC2-3 peptide fluorescence polarization, 2 h; AID 504847, 2011; 400,000 tested, 0.93% active; Vitamin D3 receptor (Homo sapiens), P11473; Potency, µM, without a hit: max response, negative = inhibition, actives largely listed as inhibitors; active = well fitted inhibition curve with a large enough effect; also: series mostly up to about 120 µM
Target sequence (P11473 whole entry, looked up): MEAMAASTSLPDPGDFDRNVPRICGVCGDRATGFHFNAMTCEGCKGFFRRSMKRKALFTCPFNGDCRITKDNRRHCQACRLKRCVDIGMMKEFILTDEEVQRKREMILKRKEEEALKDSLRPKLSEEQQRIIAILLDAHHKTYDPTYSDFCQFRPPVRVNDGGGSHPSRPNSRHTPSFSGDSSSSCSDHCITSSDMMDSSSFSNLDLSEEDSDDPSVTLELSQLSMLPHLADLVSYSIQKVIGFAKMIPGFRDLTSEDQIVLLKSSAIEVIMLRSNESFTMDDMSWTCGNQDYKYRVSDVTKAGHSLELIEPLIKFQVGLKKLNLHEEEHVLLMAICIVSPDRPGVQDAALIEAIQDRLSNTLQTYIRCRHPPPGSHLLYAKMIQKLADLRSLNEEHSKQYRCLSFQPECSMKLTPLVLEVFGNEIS
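Reagent solutions, kept cold and dark, are dispensed first; compounds are then pinned in at 23 nl, plates briefly spun, and incubated 2 h at ambient temperature. Inhibition of VDR–SRC2-3 peptide binding is read by fluorescence polarization.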
* = called active by the depositor; & = joins results of further samples. % is scaled to controls: 0 for no effect and ±100 for the full control effect; potency is read from the fitted curve at half-maximal effect. Only part of the results is shown; count on the stated rates, not on these rows.

SMILES	VDR inh
Cc1ccc(C(c2nnnn2C2CCCCC2)N2CCc3ccccc32)cc1 (stereo unspecified)	-23.6%
Cc1nn(-c2ccccc2)c(N2CCCC2)c1/C=N/NC(=O)c1cccc(S(=O)(=O)Nc2ccc(Cl)cc2)c1	-7.5%
CSc1ccc(CNC(=O)c2cc3cc(S(=O)(=O)N4CCCCC4)ccc3n2C)cc1	6.1%
CCOn1c(=O)c(-c2cccs2)[n+]([O-])c2ccccc21	3.6%
Cc1ccc(S(=O)(=O)Nc2ccc3nc(C)oc3c2)cc1	-8.3%
CCn1c(CN2CCOCC2)nc2cc(NC(=O)c3cccc([N+](=O)[O-])c3)ccc21	15.6%
Cc1cc(Nc2ccccc2)c2c([N+](=O)[O-])cc(C)c(C)c2n1	-4.9%
CCN(CC)C(=O)c1sc(NC(=O)c2cc(-c3ccc(C)s3)nc3ccccc23)c(C(=O)OC)c1C	-29.4%
O=C(Nc1ccccc1)C1=C[C@@H](C2CC2)C[C@@H](OCCCCO)O1	-0.5%
CCN(CC)CC(O)CN(c1ccccc1)S(=O)(=O)c1ccc2ccccc2c1 (stereo unspecified)	-4.5%
O=C(Nc1ccncc1)c1cccc(S(=O)(=O)N2CCCC2)c1	4.1%
CC1(C)OC(=O)C(=CNc2cccc(O)c2)C(=O)O1	-0.2%
COc1cc(/C=C2/C(=O)c3cccc([N+](=O)[O-])c3C2=O)c(Br)cc1O	20µM*
COc1ccc(OCC(=O)Nc2cccc(NC(=O)c3ccco3)c2)cc1	7.2%
CCOC(=O)c1ccccc1NC(=O)NC(C)c1c(-n2cccc2)sc(C)c1C (stereo unspecified)	1.9%
CN(N=O)C(=O)N[C@H]1C(O)OC(CO)[C@@H](O)[C@H]1O (stereo partly specified)	-22.3%
COc1ccc(OC)c(CN(CCCN2CCOCC2)S(=O)(=O)c2ccc(NC(C)=O)cc2)c1	15.6%
Cc1cccc2c1cnn2C(=O)CCC(=O)N1CC(C)CC(C)C1 (stereo unspecified)	-14.6%
COc1ccc(NC(=O)CNc2cc(C)ccc2C)cc1S(=O)(=O)N1CCOCC1	14.6%
CC1=C(/C=C/C(C)=C/C=C/C(C)=C/C(=O)Oc2c(C)c(C)c3c(c2C)CC[C@@](C)(CCC[C@H](C)CCC[C@H](C)CCCC(C)C)O3)C(C)(C)CCC1	-4.3%
CN(CCCNC(=O)c1cc2c(=O)[nH]c3ccccc3c2n1C)Cc1ccccc1	-6.6%
CCOc1ccc(NC(=O)CN(C)S(=O)(=O)c2ccc3[nH]c4c(c3c2)CCCC4)cc1	-7.9%
CCOc1ccc2oc(C(=O)OCC(=O)NC(=O)NC)c(C)c2c1	3.2%
CCOc1cc(C(=O)Nc2ccc(N3CCOCC3)cc2)cc(Br)c1OC	-19.8%
CCc1ccc(C2CC(c3ccccc3)n3ncnc3N2)cc1 (stereo unspecified)	-18.8%
O=C(NCCC1CCCCN1S(=O)(=O)c1ccc(Cl)cc1)C(=O)NCc1ccncc1 (stereo unspecified)	-0.6%
COc1ccc(-c2noc(N3CCC(C(=O)N(C)c4ccccc4C)CC3)n2)cc1	-15.4%
O=C(Cc1cc(=O)[nH][nH]1)N/N=C/C=C/c1ccccc1	-26.7%
CCOC(=O)N1CCN(C(=O)c2c(-c3ccccc3Cl)noc2C)CC1	0.9%
CCNc1nc2c(c(=O)[nH]c(=O)n2C)n1CC(O)COc1ccc(Cl)cc1Cl (stereo unspecified)	-10.7%
Cc1ccc(Cl)cc1N(C)C(=O)c1sc2nc3n(c(=O)c2c1C)CCCC3	-7.8%
O=C(NN=Cc1c(O)ccc2ccccc12)C1CC1	-4.6%
CC(=O)c1cc2c(cc1NC(=O)CSc1ccc(S(=O)(=O)N(C)C)cn1)OCO2	-11.1%
CC(C)c1ccc(OCC(=O)Nc2cc(-c3ccccc3)no2)cc1	6.6%
O=C(O)CC12CC3CC(C1)CC(n1ncc(NCc4ccco4)c(Cl)c1=O)(C3)C2	-4.6%
S=C(NCCc1ccccc1)Nc1ccc(N2CCCCC2)cc1	-4.2%
O=c1cc2ncc(-n3cc([N+](=O)[O-])cn3)cn2[nH]1	-2.6%
CN(C)C(=O)CN1CCN(Cc2nc(CC3CC3)no2)CC1	-7.8%
CN(CC(=O)N1CCCC1)S(=O)(=O)c1cc(Cl)ccc1Cl	-3.2%
Cc1cccc(N(CC(=O)NC2CCCC2)C(=O)CCC(=O)Nc2nc(C)cs2)c1	1.5%
COc1cc(/C=C/c2ccc3cccc([N+](=O)[O-])c3n2)ccc1OCC#N	14.3%
Cc1cccc(-c2noc(-c3cccnc3NCc3ccccc3Cl)n2)c1	0.2%
COc1ccc(C#Cc2c(-c3ccccc3)n(C)c3ccccc23)cc1	11.2%
CCCOc1ccc(C(CC(=O)O)NC(=O)CC(c2ccccc2)c2ccccc2)cc1 (stereo unspecified)	15.3%
O=C(N/C=N/OCc1cccc(C(F)(F)F)c1)N1OC[C@@H]2COc3ccc4ccccc4c3[C@@H]21	-5.7%
CCOC(=O)[C@@H]1[C@H]2COc3cc(OC)ccc3[C@@H]2N2C(=O)N(c3ccccc3)C(=O)[C@]12C	-19.1%
COc1cccc(CNC(=O)CSc2c3c(nc4cc(Cl)ccc24)CCCC3)c1	-22.7%
Fc1cccc2sc(Nc3nc4cc5c(cc4s3)OCCO5)nc12	-3.6%
O=C(CCCc1ccccc1)NCCCN1CCOCC1	-9.0%
CCOc1ccc(NC(=O)c2ccc(NC(=O)COC(=O)c3ccc(NC(=O)CC#N)cc3)cc2)cc1	-12.1%

In another format: entries from further up.
| VDR inh | SMILES |
| --- | --- |
| -22.7% | COc1cccc(CNC(=O)CSc2c3c(nc4cc(Cl)ccc24)CCCC3)c1 |
| 11.2% | COc1ccc(C#Cc2c(-c3ccccc3)n(C)c3ccccc23)cc1 |
| 14.3% | COc1cc(/C=C/c2ccc3cccc([N+](=O)[O-])c3n2)ccc1OCC#N |
| -5.7% | O=C(N/C=N/OCc1cccc(C(F)(F)F)c1)N1OC[C@@H]2COc3ccc4ccccc4c3[C@@H]21 |

The listing continues.
SMILES	VDR inh
Cc1cc2c(ccc3[nH]onc32)n1	-11.3%
Cc1ccc(-c2nc3ccccc3n3c(-c4ccccc4)c4c(=O)n(C)c(=O)n(C)c4c23)cc1	-20.3%
CC(C)CCn1c(=O)c2sccc2n2c(CCCC(=O)NC(C)C)nnc12	7.3%
CN(C)c1ncc2nc(CCc3ccccc3)c(=O)n(CCC#N)c2n1	-16.8%
N#CCOC(=O)[C@H](Cc1c[nH]c2ccccc12)NS(=O)(=O)c1ccc(Cl)cc1	-17.7%
COc1cc(NS(=O)(=O)c2ccc(N=Cc3c(C)[nH]n(-c4ccccc4)c3=O)cc2)nc(OC)n1	9.5%
O=C(NCC1CCCO1)c1ccccc1NS(=O)(=O)c1ccc(Br)s1 (stereo unspecified)	-8.7%
CCN(CC(=O)Nc1ccccc1C(F)(F)F)C(=O)c1cc(S(=O)(=O)N(C)C)ccc1N1CCCC1	-15.2%
CN(CC(=O)Nc1ccc(F)cc1F)S(=O)(=O)c1ccc(C(=O)N2CCOCC2)s1	5.4%
Cc1cccc(NC(=O)CSc2nnc(-c3ccc(S(=O)(=O)N4CCOCC4)cc3)n2C)c1	4.1%

The last five records of the part above open the next one:
SMILES	VDR inh
COc1cc(NS(=O)(=O)c2ccc(N=Cc3c(C)[nH]n(-c4ccccc4)c3=O)cc2)nc(OC)n1	9.5%
O=C(NCC1CCCO1)c1ccccc1NS(=O)(=O)c1ccc(Br)s1 (stereo unspecified)	-8.7%
CCN(CC(=O)Nc1ccccc1C(F)(F)F)C(=O)c1cc(S(=O)(=O)N(C)C)ccc1N1CCCC1	-15.2%
CN(CC(=O)Nc1ccc(F)cc1F)S(=O)(=O)c1ccc(C(=O)N2CCOCC2)s1	5.4%
Cc1cccc(NC(=O)CSc2nnc(-c3ccc(S(=O)(=O)N4CCOCC4)cc3)n2C)c1	4.1%
COc1ccc(-c2onc(C)c2C)cc1S(=O)(=O)NCC1CCN(Cc2cc(C)ccc2C)CC1	7.9%
COc1cc(OC)cc(C(=O)Nc2ccc3c(c2)CCCN3C(=O)c2cccs2)c1	-2.9%&7.8%
CCOc1cc(CNCc2ccccc2)ccc1OCC(=O)NC1CCCCC1	-0.8%
CCc1ccc2c(c1)c(=O)c(C(=O)c1ccc(C)cc1)cn2CC(=O)Nc1ccccc1C	-7.3%
COCC(=O)N1CCC[C@@]2(CCN(Cc3ccccc3OC)C2)C1	-0.5%
Cc1noc(Cn2c(=O)c3ccccc3n(CC(=O)Nc3ccccc3C(F)(F)F)c2=O)n1	-1.2%
CC(Oc1ccc(C#N)cc1)C(=O)NC1CCCC1 (stereo unspecified)	-0.2%
CC(C)OC(=O)CSc1nnc(-c2ccccn2)n1C	16.9%
CN(C)C(=O)c1ccc(-n2cccn2)nc1	11.5%
COc1ccc(CCN(C)C(=O)CSc2nnc(-c3ccco3)o2)cc1OC	16.1%
CCN(Cc1ccccc1)S(=O)(=O)c1ccccc1Br	-19.5%
O=C(COC(=O)c1ccccc1[N+](=O)[O-])c1ccc(C2CCCCC2)cc1	9.7%
COc1ccccc1OCC(=O)Nc1ccc(CSc2ccccc2)cc1C	7.0%
c1ccc2oc(-c3[nH]ncc3CN(Cc3ccncc3)CC3CCCO3)cc2c1 (stereo unspecified)	-1.9%
CC(NC(=O)c1ccccc1NC(=O)c1ccco1)c1ccccc1 (stereo unspecified)	-5.5%
CCC(C)C(=O)Nc1nnc(SCC(=O)NC(C)(C)C)s1 (stereo unspecified)	5.4%
CCCCNc1c(-c2cccc(-c3ccc(OC)cc3)c2)nc2cc(C)ccn12	-23.5%
Cc1ccc(-n2nc(C)c3c(C)onc3c2=O)cc1	-18.1%
CCc1ccccc1NC(=O)Nc1cc(C(=O)NCc2cccc(F)c2)ccc1N1CCCC1	6.1%
OC1(c2cccnc2)CCN(Cc2nnnn2C2CCCCC2)CC1	6.6%
O=C(NCc1ccccn1)c1ccc(COc2ccc(Cl)cc2)o1	0.8%
CC(=O)c1cnc(SCc2ccc(Cl)cc2)nc1C	-5.9%
O=C(NCC1COc2ccccc2O1)c1cccs1 (stereo unspecified)	-18.1%
CCn1c(SCC(=O)Nc2nccs2)nnc1-c1ccc(C)cc1	0.9%
COc1ccc2cc(C(=O)O)ccc2c1	-4.0%
C/C(=N\NC(=O)c1ccccc1O)C1C(=O)c2ccccc2C1=O	8.3%
Cc1cc(N2CCC(C)CC2)nc(NCc2ccccc2)n1	-13.9%
COC(=O)c1cc(=O)n(Cc2ccc(OC)cc2)c(=NCc2ccc(OC)cc2)s1	5.3%
Cc1[nH]c2nc3ccccc3n2c(=O)c1CCC(C)C	10.7%
Cc1cc(=O)oc2cc(O[C@@H]3O[C@H](C(=O)O)[C@@H](O)[C@H](O)[C@H]3O)ccc12	-7.5%
COc1cc(/C=C/C(=O)O)ccc1O	1.5%&6.3%
CC(=N)c1c(O)c2ccccc2oc1=O	7.6%
CCN(CC)C(=S)Nc1ccc(C(=O)OC)cc1	-18.3%
COc1ccc(CNC(=O)CCCC2=NS(=O)(=O)c3ccccc3N2)cc1	-11.8%
COC(=O)c1cc(S(=O)(=O)N2CCC(c3cc(OC)ccc3OC)C2)c[nH]1 (stereo unspecified)	-12.1%
COc1ccccc1C1CC(c2ccc(Cl)cc2)Nc2ncnn21 (stereo unspecified)	-20.1%
CC(C)Nc1nc(NC(C)C)nc(SCC(N)=O)n1	5.7%
Cc1cccc(N(CC(O)CN2CCOCC2)S(=O)(=O)c2ccccc2)c1 (stereo unspecified)	12.1%
COc1ccc2c(c1)C(=O)[C@@H](OC(=O)NCCc1ccc(OC)c(OC)c1)[C@H](c1ccc(OC)c(Br)c1)O2	-3.9%
CCCS(=O)(=O)N1CCCC(C(=O)NCCc2ccc(Cl)cc2)C1 (stereo unspecified)	7.7%
O=C1c2ccccc2C(=O)N1CCCc1nc(-c2ccccn2)no1	-17.8%
Cc1ccc(Sc2ccc(S(=O)(=O)Nc3ccc(CC(=O)O)cc3)cc2)cc1C	-2.6%
CCOc1ccc2[nH]c(=O)c(CN(CCCN3CCOCC3)Cc3nnnn3Cc3ccc(OC)cc3)cc2c1	-13.3%
COc1ccc(C2=NS(=O)(=O)N(C)C(C(=O)N3CCc4ccccc4C3)=C2)cc1OC	-9.2%
Cc1cn([C@H]2C[C@H](N=[N+]=[N-])[C@@H](CO)O2)c(=O)[nH]c1=O	-1.0%&-5.0%&-5.3%
Cc1noc(C)c1COC(=O)c1cccc(S(=O)(=O)N2CCCCCC2)c1	3.5%
O=C(COC(=O)c1cc[n+]([O-])cc1)Nc1ccccc1Sc1ccccc1	-14.9%
CCOC(=O)CNC(=O)CN1C(=O)CC(c2ccccc2)S(=O)(=O)c2ccccc21 (stereo unspecified)	-8.4%
CCOC(=O)C1(Cc2ccccc2)CCN(Cc2cnn(CC)c2)CC1	0.9%
CC(C(=O)Nc1ccc(Cl)cc1Cl)N1C(=O)NC2(CCCC2)C1=O (stereo unspecified)	7.6%

3 entries already listed, ordered by formula weight, low to high:
SMILES	VDR inh
O=C(COC(=O)c1cc[n+]([O-])cc1)Nc1ccccc1Sc1ccccc1	-14.9%
COc1ccc(C2=NS(=O)(=O)N(C)C(C(=O)N3CCc4ccccc4C3)=C2)cc1OC	-9.2%
CCOc1ccc2[nH]c(=O)c(CN(CCCN3CCOCC3)Cc3nnnn3Cc3ccc(OC)cc3)cc2c1	-13.3%

Remaining list, next part.
SMILES	VDR inh
CCNc1nc(Oc2ccc(=O)[nH]n2)nc(SC)n1	-6.0%
CC(C)Cn1ccc(=O)n(CC(C)C)c1=O	0.8%
CC(C)c1ccc(N2C(=NC(=O)C3CCCO3)SC3CS(=O)(=O)CC32)cc1 (stereo unspecified)	2.3%
Cc1onc(-c2ccccc2)c1C(=O)N1CCN(S(=O)(=O)c2ccc3c(c2)OCCO3)CC1	-7.0%
CCCSc1nc(C)c(CC(=O)O)c(=O)[nH]1	-10.8%
CCOC(=O)/C(C#N)=C\c1cc(C)n(-c2ccccc2)c1C	-10.4%
Cc1c(C)c2ccc(OCC(=O)Nc3cccnc3)cc2oc1=O	8.2%
COc1ccc(CC(=O)NNC(=S)Nc2ccccc2)cc1Br	6.5%
Cc1ccc(S(=O)(=O)N2CCC[C@H]2C(=O)OCC(=O)N2c3ccccc3NC(=O)C2(C)C)cc1	-1.7%
